# High-throughput results deposited in PubChem BioAssay by Fisher Drug Discovery Resource Center.
# NPYLR7 ag: mosquito NPYLR7 agonism | HEK293T NPYLR7/Galpha15, GCaMP6s calcium fluorescence | activation, % at 10 µM | actives 0.15% (n = 270,000) | AID 1259423; in the data active = activation above about 40%;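 note: 0% = vehicle and 100% = reference agonist at the receptor; some compounds past the cut are filed as inactive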
# NPYLR7 ag max-min: recorded beside NPYLR7 ag, whose call it bears; activation, %; measured here: Max-Min RFU normalised activation; some inactives read as strong as hits;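 span of the calcium signal over five minutes; 0% = vehicle and 100% = native peptide agonist; compound fluorescence can raise it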
# * hit, by the source's call; & = joins results of further samples. Some of the compounds tested; the hit share may differ from the screen's.
1	Cc1cnc(CNC(=O)c2c(C)noc2-c2ccc(C(C)(C)C)cc2)cn1
2	CC(C)Cc1nc(-c2ccc(CN3CCN(C(=O)CCc4ccco4)CC3)cc2)no1
3	CC(C)c1cc(C2CCN(C(=O)CCN3C[C@@H]4CC[C@H]3C4)CC2)[nH]n1
4	O=C(CCCc1nnc2c(=O)n(-c3ccc(Cl)cc3)ccn12)NCCN1CCCC1
5	CCC(C(=O)Nc1cccc(-c2cn3nc(OC)ccc3n2)c1)c1ccccc1 (stereo unspecified)
6	Cc1cccc2[nH]nc(-c3cc(NCCN(C)C)nc4[nH]ccc34)c12
entry no.	1	2	3	4	5	6
NPYLR7 ag	4	-3	0	7	-16	7
NPYLR7 ag max-min	12	1	-7	0	-21	4

7	CCC(C)CN(CC(=O)N1CCc2sccc2C1COc1ccc(F)cc1)S(=O)(=O)c1ccc(Cl)cc1 (stereo unspecified)
8	CCOC(C)C(=O)Nc1ccnn1-c1ccccc1C (stereo unspecified)
9	CCCN(Cc1nc2cc(Cl)ccc2c(=O)[nH]1)C(=O)Cc1csc(-c2ccccc2)n1
10	O=C(NCc1nnnn1C1CCCCC1)c1cccc(F)c1
11	CCCS(=O)(=O)NCc1c(C)ncc2c1CCN(C(=O)c1ccc3[nH]c4c(c3c1)CCCC4)C2
12	COc1ccc(-n2ccc3c(nnc4c(-c5ccc(F)cc5)c(C)nn43)c2=O)cc1
entry no.	7	8	9	10	11	12
NPYLR7 ag	-3	13	-16	18	29	-3
NPYLR7 ag max-min	-1	7	-17	9	21	3

13	Fc1cccc(F)c1-c1nc2ccccc2[nH]1
14	CCN(CC)c1ccc(CN(C)C(=O)CCc2c(C)[nH]c(=O)[nH]c2=O)cc1
15	COc1cc(C(=O)N2CCOc3ccccc3C2)ccc1OC1CCN(C(C)=O)CC1
16	Cc1cccc2nc(C(=O)N(C)CC(=O)Nc3c(Cl)cccc3Cl)cn12
17	O=C1CSc2ccccc2N1
18	CCC(=O)Nc1cccc(C(=O)N2CCCN(C)CC2C)c1 (stereo unspecified)
entry no.	13	14	15	16	17	18
NPYLR7 ag	0	2	0	1	1&11	20
NPYLR7 ag max-min	7	4	-5	1	3&9	5

# Part of the list above in another layout.
item | smiles | NPYLR7 ag | NPYLR7 ag max-min
13 | Fc1cccc(F)c1-c1nc2ccccc2[nH]1 | 0 | 7
14 | CCN(CC)c1ccc(CN(C)C(=O)CCc2c(C)[nH]c(=O)[nH]c2=O)cc1 | 2 | 4
15 | COc1cc(C(=O)N2CCOc3ccccc3C2)ccc1OC1CCN(C(C)=O)CC1 | 0 | -5
16 | Cc1cccc2nc(C(=O)N(C)CC(=O)Nc3c(Cl)cccc3Cl)cn12 | 1 | 1

# Carrying on.
19	CCOC(=O)CC1=C(C(=O)OCC)C(c2ccccc2Cl)C(C#N)C(=N)O1 (stereo unspecified)
20	COc1ccc2[nH]c3c(c2c1)CCN(C(=O)/C=C/c1cccc(C(F)(F)F)c1)C3c1ccc(C(F)(F)F)cc1 (stereo unspecified)
21	NC(=O)C1CN(c2nc(-c3cc(Cl)cc(Cl)c3)no2)CCO1 (stereo unspecified)
22	COC(=O)c1cc2c(s1)CN(C1CCCC1)C2
23	O=C(NCCCl)Nc1cc(-c2ccccc2)nc2ccccc12
24	Cc1cc(C(F)F)n2nc(C(=O)Nc3cnn(Cc4ccc(Cl)cc4Cl)c3)nc2n1
entry no.	19	20	21	22	23	24
NPYLR7 ag	-3	-11	-20&1	9	-5	-4
NPYLR7 ag max-min	-7	-13	-22&1	3	-7	-12

25	O=C(CCN(Cc1ccccc1)c1nc(-c2ccco2)nc2ccccc12)Nc1ccccc1F
26	CCCCCc1ccc(C(=O)N(CC(=O)N2c3ccccc3-n3cccc3C2c2cccc(C)c2)C2CC2)cc1 (stereo unspecified)
27	CCc1ccc(S(=O)(=O)NCC(c2ccc3c(c2)CCCN3C)N2CCN(C)CC2)s1 (stereo unspecified)
28	CCOC(=O)C1CCCN(C(=O)CS(=O)(=O)c2ccc3c(c2)S(=O)(=O)N=CN3)C1 (stereo unspecified)
29	COc1cccc(-c2cc(-c3ccc(C(=O)NC(Cc4ccccc4)c4ccccc4)cc3)[nH]n2)c1 (stereo unspecified)
30	O=C(Cc1ccccc1)Nc1nnc(SCc2cc(F)cc(F)c2)s1
entry no.	25	26	27	28	29	30
NPYLR7 ag	16	13	0	9	4	21
NPYLR7 ag max-min	9	20	-2	-6	1	12

# Continued; it opens with the 4 that closed the last part.
27	CCc1ccc(S(=O)(=O)NCC(c2ccc3c(c2)CCCN3C)N2CCN(C)CC2)s1 (stereo unspecified)
28	CCOC(=O)C1CCCN(C(=O)CS(=O)(=O)c2ccc3c(c2)S(=O)(=O)N=CN3)C1 (stereo unspecified)
29	COc1cccc(-c2cc(-c3ccc(C(=O)NC(Cc4ccccc4)c4ccccc4)cc3)[nH]n2)c1 (stereo unspecified)
30	O=C(Cc1ccccc1)Nc1nnc(SCc2cc(F)cc(F)c2)s1
31	COc1ccc(C2Nc3ccccc3C(=O)N2c2ccccc2)cc1COc1ccc(F)cc1 (stereo unspecified)
32	CC(C)c1ccc(CN2CCC2(C)C(=O)NCCc2ccccn2)cc1 (stereo unspecified)
33	CC(C)=CC(=O)N1CCC(c2cc(C(C)C)n[nH]2)CC1
34	O=C(c1c(F)c(F)c(F)c(F)c1F)N1CCN(c2nc3nccc(-c4cccs4)n3n2)CC1
35	Nc1cc(Cl)ccc1Oc1ccc(Cl)cc1
36	CCC(=O)NNC(=O)c1cc(C)[nH]n1
entry no.	27	28	29	30	31	32	33	34	35	36
NPYLR7 ag	0	9	4	21	-7	14	15	5	7	-3
NPYLR7 ag max-min	-2	-6	1	12	-7	11	13	-2	5	-5

37	O=[N+]([O-])c1ccc(-c2nnc(-c3ccc([N+](=O)[O-])o3)o2)cc1
38	CCOC(=O)C1(Cc2ccccc2)CCCN(C(=O)Nc2ccc(C(=O)OC)cc2)C1 (stereo unspecified)
39	O=c1[nH]c(SCc2cc(=O)n3ccccc3n2)nc2c1CCC2
40	CC(=O)c1ccc(Oc2cc(C(C)(C)C)nc(SCc3ccccc3Cl)n2)cc1
41	O=C(Cn1ccc(-c2ccccc2F)n1)Nc1ccn(Cc2ccccc2)n1
42	Cc1c(NC(=O)c2cccc(C3(C)NC(=O)NC3=O)c2)sc2c1CCCC2 (stereo unspecified)
entry no.	37	38	39	40	41	42
NPYLR7 ag	19	20	8	1	7	3
NPYLR7 ag max-min	6	16	11	6	-1	2

43	CCOc1ccc2nc(SC(C)C#N)[nH]c2c1 (stereo unspecified)
44	Cc1ccc2c(n1)OC(COC(C)(C)C)CN(Cc1ccccc1)C2=O (stereo unspecified)
45	O=S(=O)(c1ccc(Cl)cc1)c1cc(O)ccc1O
46	C(=Cc1ccccc1)C=NNc1nn[nH]n1
47	CCCCc1ccc(NC(=O)CSc2nc(=O)n(CCCN(C)C)c3c2CCC3)cc1
48	COC(=O)CCCC(=O)N1CCN(c2ncccc2C(=O)NCc2ccc(OC)cc2)CC1
entry no.	43	44	45	46	47	48
NPYLR7 ag	6	-2	-8	-4	1	19
NPYLR7 ag max-min	6	10	-7	-5	7	11

49	C=CCN(CC=C)S(=O)(=O)c1ccc2nc(NC(=O)C3CCCO3)sc2c1 (stereo unspecified)
50	CCN(c1ccccc1)S(=O)(=O)c1cc(C(=O)OCC#N)ccc1C
51	O=C1C(=O)N(c2nccs2)C(c2cccc([N+](=O)[O-])c2)C1=C(O)c1ccc(Br)cc1 (stereo unspecified)
52	O=C(c1csc(CSc2nnc(-c3ccncc3)n2-c2ccccc2F)n1)N1CCc2ccccc2C1
53	COc1ccccc1-c1nnc(SCc2ccc(Cl)cc2)n1C
54	Cc1nccn1CC1CCCN(Cc2ccco2)C1 (stereo unspecified)
entry no.	49	50	51	52	53	54
NPYLR7 ag	-7	-3	9	-6	4	-2
NPYLR7 ag max-min	-13	0	12	2	3	-10

# From compound 49 to 51, as listed above:
49	C=CCN(CC=C)S(=O)(=O)c1ccc2nc(NC(=O)C3CCCO3)sc2c1 (stereo unspecified)
50	CCN(c1ccccc1)S(=O)(=O)c1cc(C(=O)OCC#N)ccc1C
51	O=C1C(=O)N(c2nccs2)C(c2cccc([N+](=O)[O-])c2)C1=C(O)c1ccc(Br)cc1 (stereo unspecified)
entry no.	49	50	51
NPYLR7 ag	-7	-3	9
NPYLR7 ag max-min	-13	0	12

# Continued.
55	CN(C(=O)c1cccs1)C1CCS(=O)(=O)C1 (stereo unspecified)
56	CCOC(=O)c1ccc2c(c1)nc(SCc1cc(F)ccc1C(F)(F)F)n2CCOC
57	CC(C)Oc1cccc(NC(=O)C2(C)CCCN(C)C2)c1 (stereo unspecified)
58	Cn1cnn(CN2CCN(c3cccc(Cl)c3)CC2)c1=S
59	Cc1ccccc1CN1CCN(c2nc3c(c(=O)[nH]c(=O)n3C)n2Cc2ccccc2C)CC1
60	CCOC(=O)c1ccc(-n2ccnc2)c(NC(=O)C2CCC2)c1
entry no.	55	56	57	58	59	60
NPYLR7 ag	0	3	0	2	5	-5
NPYLR7 ag max-min	-1	1	0	-3	1	65

61	Cc1ccccc1OC1CN(C(=O)CC2C(=O)NCCN2C(C)C)C1 (stereo unspecified)
62	Cc1ccc(Cn2c(C3CC(=O)Nc4[nH]ncc43)nc3ccccc32)cc1 (stereo unspecified)
63	Cc1cccc(CSc2nc(Oc3cccc(F)c3)cc(C(F)(F)F)n2)c1
64	COc1ccc2cc([C@@H]3C[C@H](NC(C)=O)C[C@H](C(C)(C)C)O3)c(=O)[nH]c2c1
entry no.	61	62	63	64
NPYLR7 ag	7	1	-1	6
NPYLR7 ag max-min	5	0	2	-1
